Bioassay records as filed in PubChem.
NPYLR7 ag = mosquito NPYLR7 agonism; HEK293T NPYLR7/Galpha15, GCaMP6s calcium fluorescence; activation, % at 10 µM; hit rate 0.15% among 270,000; in the data active = activation above about 40%;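 note: 0% = vehicle and 100% = reference agonist at the receptor; some compounds past the cut are filed as inactive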
NPYLR7 ag max-min = second read-out of NPYLR7 ag, no call of its own (marks repeat the call); activation, %; measured here: Max-Min RFU normalised activation; some inactives read as strong as hits;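 span of the calcium signal over five minutes; 0% = vehicle and 100% = native peptide agonist; compound fluorescence can raise it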
The depositor's hits bear a star; & = joins results of further samples. Some of the compounds tested; the hit share may differ from the screen's.

Results follow in this order: NPYLR7 ag | NPYLR7 ag max-min
> Cc1[nH]c2ccc(CNC(=O)CCc3nc(-c4cccnc4)no3)cc2c1C
→ -9 | -13
> CCN(CC)S(=O)(=O)c1ccc2oc(=S)n(CN3CCCC(O)C3)c2c1 (stereo not given)
→ 9 | 7
> CCCCc1ccc(C(=O)Nc2ccc(-n3nc(OCCOC)nc3-c3ccccc3C)cc2)cc1
→ -2 | 4
> CC(=O)N(O)CCCCCNC(=O)CCC(=O)N(O)CCCCCNC(=O)CCC(=O)N(O)CCCCCN
→ -9&-5&6 | -17&-7&2
> CN(C)c1cccc(C(=O)N2CC(=O)N3CCc4cc(F)ccc4C3C2)c1 (stereo not given)
→ 35 | 31
> COc1ccc(-c2nc(CC(=O)NCCc3cc(Cl)c4c(c3)OCCO4)cs2)cc1
→ 2 | 6
> O=C1CCCC1Sc1nnc(-c2ccc3c(c2)OCO3)o1 (stereo not given)
→ -2 | -4
> Cc1ccccc1CSc1nc(Oc2ccccc2C)cc(C(F)(F)F)n1
→ 2 | 15
> c1cc(CNc2ccc(CCN3CCOCC3)cc2)co1
→ 13 | 8
> O=C(CNC(=O)c1ccc(F)c(F)c1)Nc1ccnc2ccnn12
→ 10 | 5
> O=C1O[C@@H]2CN(c3nccc4ccccc34)C[C@@H]2N1CCc1cccc(Cl)c1
→ -6 | -9
> O=C(CC12CC3CC(CC(C3)C1)C2)NCc1ccc(Cn2cccn2)cc1
→ 7 | 3
> O=C(CN1CCc2sccc2C1c1cccc(F)c1)N1CCCN(S(=O)(=O)c2ccccc2)CC1 (stereo not given)
→ 3 | -1
> Cc1cc(CNC(=O)C2CCN(S(=O)(=O)c3ccc4c(c3)CCCC4)CC2)ccc1F
→ 8 | 3
> CNC(=O)NC(=O)CSc1nc(C)nc2sc(C)c(C)c12
→ 8 | 8
> CCCCc1ccc(C(=O)N2CCc3nc(C)n(C)c(=O)c3CC2)nc1
→ -3 | -5
> CCn1c(C2CCN(C(=O)CC3C=CS(=O)(=O)C3)CC2)nn(C)c1=O (stereo not given)
→ 4 | 3
> Cc1cc(C)c(C#N)c(SC(F)F)n1
→ -2 | 11
> CCN(c1cccc(C)c1)c1cc(C)nc(-n2cc([N+](=O)[O-])cn2)n1
→ 3 | 9
> CCN1CCN(S(=O)(=O)c2ccc(OC)c(N3CCN(C(=O)c4cc(F)cc(C(F)(F)F)c4)CC3)c2)CC1
→ 2 | -6
> CN1CCN([C@H]2CN(C(=O)CCC3CCCC3)C[C@@H]2O)CC1
→ -7 | -9
> C=CCNC(=O)N1CCN(C(C(=O)Nc2ccc(C(C)C)cc2)C2CCCC2)CC1 (stereo not given)
→ 13 | 15
> CC(C)(C)c1cc(Oc2ccccc2F)nc(SCc2cccc(Cl)c2)n1
→ 2 | 11
> Cc1nn(-c2cccc(Cl)c2)c(Oc2ccccc2)c1CN(CC(O)COc1ccccc1)C1CC1 (stereo not given)
→ 17 | 17
> Fc1cccc(-c2cnnc(N3CCN(C/C=C/c4ccccc4)CC3)n2)c1
→ 3 | 0
> Cc1ncc(CN2CCCC(c3n[nH]c(=O)n3-c3ccccc3)C2)s1 (stereo not given)
→ 1 | 0
> C=CCCC(O)(CCC=C)c1ccc(CN(Cc2ccsc2)Cc2ccco2)o1
→ -7 | -2
> CCCCN(CC(=O)N1c2ccccc2-n2cccc2C1c1ccc(Cl)cc1)C(=O)Nc1ccc(F)cc1F (stereo not given)
→ 14 | 23
> COc1cc(OC)c2nc(NCCC(N)=O)cc(C)c2c1
→ 2 | 2
> CC(Sc1nnc(-c2cccs2)n1C1CC1)C(=O)Nc1ccnn1C(C)C (stereo not given)
→ 3 | 4

Part of the list above in order of length of the SMILES, smallest number first:
Results follow in this order: NPYLR7 ag | NPYLR7 ag max-min
> Cc1cc(C)c(C#N)c(SC(F)F)n1
→ -2 | 11
> CN1CCN([C@H]2CN(C(=O)CCC3CCCC3)C[C@@H]2O)CC1
→ -7 | -9
> CN(C)c1cccc(C(=O)N2CC(=O)N3CCc4cc(F)ccc4C3C2)c1 (stereo not given)
→ 35 | 31
> CCn1c(C2CCN(C(=O)CC3C=CS(=O)(=O)C3)CC2)nn(C)c1=O (stereo not given)
→ 4 | 3
> COc1ccc(-c2nc(CC(=O)NCCc3cc(Cl)c4c(c3)OCCO4)cs2)cc1
→ 2 | 6

Back to the main list, starting four compounds before the break.
Results follow in this order: NPYLR7 ag | NPYLR7 ag max-min
> C=CCCC(O)(CCC=C)c1ccc(CN(Cc2ccsc2)Cc2ccco2)o1
→ -7 | -2
> CCCCN(CC(=O)N1c2ccccc2-n2cccc2C1c1ccc(Cl)cc1)C(=O)Nc1ccc(F)cc1F (stereo not given)
→ 14 | 23
> COc1cc(OC)c2nc(NCCC(N)=O)cc(C)c2c1
→ 2 | 2
> CC(Sc1nnc(-c2cccs2)n1C1CC1)C(=O)Nc1ccnn1C(C)C (stereo not given)
→ 3 | 4
> CC1C(=O)N(c2ccc(Cl)cc2Cl)CCN1C(=O)c1ccc([N+](=O)[O-])cc1 (stereo not given)
→ 2 | 5
> Cc1ccc2nc(NC(=O)C3CCCN3C(=O)C3CCCCC3)sc2c1 (stereo not given)
→ 5 | 1
> CNC(=O)Cn1c2c(c3ccccc31)C[C@H]1C[C@@H]2[C@@H](OC)CN1S(=O)(=O)c1cn(C)cn1
→ 25 | 22
> C=CCOCC(O)CN1CCC(=O)N(CC=C)CCc2ccccc21 (stereo not given)
→ 1 | 13
> O=C(Nc1c2c(nn1C1CCS(=O)(=O)C1)CSC2)c1ccccc1 (stereo not given)
→ 2 | 7
> COc1cc(OC)c(C(=O)Nc2ccn(C)n2)cc1OC
→ -5 | -7
> O=C(c1ccco1)N1CCCN(Cc2cccc(-n3cccn3)c2)CC1
→ -4 | -5
> Cc1ccc(C)c(Cn2c(=O)c3c(nc4n3CCCN4Cc3ccco3)n(C)c2=O)c1
→ 0 | 0
> CC(/C=N\NC(=O)c1ccc([N+](=O)[O-])cc1)Cc1ccc2c(c1)OCO2 (stereo not given)
→ 3 | 2
> CN(Cc1cc(C(C)(C)C)n[nH]1)C(=O)[C@@H]1C[C@@H]2C=C[C@H]1C2
→ -1 | -2
> CC(=NNc1ncc(C(F)(F)F)cc1Cl)c1ccc2c(c1)OCO2
→ 17 | 28
> O=C(Cn1ncn2nc(-c3ccccc3)cc2c1=O)Nc1ccccc1C(F)(F)F
→ -11 | -18
> Cc1ccccc1Cn1c(=O)n(CC2CCC(C(=O)NCc3ccco3)CC2)c(=O)c2sccc21 (stereo not given)
→ -5 | -10
> CCC(C(=O)N1CCc2cc(OC)c(OC)cc2C1c1ccccc1Cl)c1ccccc1 (stereo not given)
→ 11 | 4
> Cc1oc(C)c(C(=O)OCC(=O)Nc2ccc(Cl)cn2)c1C
→ 5 | 0
> COc1cccc(C2C(=C(O)c3ccccc3)C(=O)C(=O)N2CCN(C)C)c1OC (stereo not given)
→ 2 | -1
> Cc1cccc(N2CCN(C(C)C(=O)N(C)C3CCS(=O)(=O)C3)CC2)c1C (stereo not given)
→ 1 | -3
> Cc1ccc(CNC(=O)CSc2ccc(-c3sc(C)nc3C)nn2)cc1
→ -6 | -16
> COc1cccc(C(=O)N2C(C(=O)N3CCCC3)COC23CCN(C(=O)C2CC2)CC3)c1 (stereo not given)
→ -1 | 8
> CCOc1cc(C#N)cc(Br)c1OCC(=O)N1CCCC2CCCCC21 (stereo not given)
→ 6 | 2
> CCOC(=O)C1CCN(CC(=O)N2N=C(c3ccccc3F)CC2c2ccccc2)CC1 (stereo not given)
→ -1 | 6
> CC(C)NC(=O)[C@@H]1C[C@@H](N)CN1C(=O)c1ccccc1-c1nccn1C
→ 2 | -4
> O=C1C(=O)N(c2ncccn2)C(c2cccc([N+](=O)[O-])c2)C1=C(O)c1ccc(Cl)cc1 (stereo not given)
→ 0 | -2
> CN1CCC(N(C)S(=O)(=O)c2ccc(F)cc2)CC1
→ 1 | -2
> CSc1nnc2c(n1)OC1(CCCCC1)Nc1ccccc1-2
→ 5 | 1
> CC1CCc2c(sc3ncnc(SCC(=O)N(C)C)c23)C1 (stereo not given)
→ -2 | -5
> CC(C)CC(=O)Nc1ccc(-c2csc(Cn3nc4ccccn4c3=O)n2)cc1
→ 4 | 0
> Cc1ccoc1C(=O)NCC1(Cn2ccnc2)CC1
→ 5 | 4
> O=C(Nc1ccc(OC(F)(F)F)cc1)c1cnn2c(C(F)(F)F)cc(-c3cccs3)nc12
→ -4 | -4
> O=C(CN1CCN(C(=O)c2cccs2)CC1)NC(=O)NC1CCCC1
→ 6 | 9

(cont.)
Results follow in this order: NPYLR7 ag | NPYLR7 ag max-min
> CC(C)C(C)N(Cc1cc(N)ccc1N(C)C)C(=O)c1ccco1 (stereo not given)
→ 8 | 3
> O=C(Nc1ccc(OC2CCCC2)cc1)N1CCN(c2ncccn2)CC1
→ -2 | -2
> CCCC(=O)N1CCC1(C)C(=O)Nc1ccc2nccnc2c1 (stereo not given)
→ -6 | -6
> CNC[C@H](O)c1ccc(O)c(O)c1
→ 83* | 47*
> Cn1ncc(N2CCOC(CCNc3ncnc4c3CCNC4)C2)cc1=O (stereo not given)
→ 1 | 1
> COc1ccc(NC(=O)Cn2cc(OC)c(=O)cc2CSc2nccc(C)n2)c(OC)c1
→ -3 | -4
> O=c1[nH]nc(NN=Cc2ccccn2)c(=O)[nH]1
→ -8 | -10
> Cc1cc(-n2c(C)cc(C(=O)CSc3nnc(C4CC4)n3C3CC3)c2C)no1
→ 5 | 11
> Cn1c(=O)oc2cc3c(cc21)NC(=O)CC3c1cc(F)ccc1-n1cccn1 (stereo not given)
→ 9 | 5
> COCCN(Cc1ccc(OC)c(OS(=O)(=O)c2cccc(C(F)(F)F)c2)c1)C(=O)c1ccccc1C
→ -3 | 3
> FC(F)Oc1ccc(Br)cc1CNCC1CCCO1 (stereo not given)
→ 1 | 2
> CCOC(=O)c1c(C)n(-c2ccc(OC)cc2)c2ccc(OC)cc12
→ -10 | -17
> O=C(Cc1cccs1)Nc1nnc(SCc2cccc(Cl)c2F)s1
→ 19 | 13
> CC(=O)NCCOc1ccc(C(=O)N2CCCC3(CCNC3)C2)cc1 (stereo not given)
→ 2 | 1
> COc1cc(CN2CCC(O)(c3ccc(C)cn3)CC2)cc(Cl)c1OC
→ 6 | 4
> CCCc1nc(C(=O)N(C)Cc2cnc3ccccc3n2)cs1
→ 7 | 3
> Cc1cc(C)cc(-n2nnc(-c3nnc(-c4ccccc4)o3)c2C)c1
→ 8 | 5
> COC(=O)CS(=O)(=O)Cc1ccc(CN)cc1
→ -3 | -3
> COc1ccc(/C=C/c2noc(C)c2NC(=O)c2cc(C)ccc2C)cc1
→ 3 | 1
> Cc1ccc(Cn2c(CO)cnc2SCC(=O)N2CCCCCC2)cc1
→ 2 | 1
> CCc1c(C)nn(-c2ccc(C(=O)N[C@@H]3C[C@@H]4C[C@H]([C@H]3C)C4(C)C)cc2)c1C
→ -13 | -23
> N#Cc1cccc(C(=O)NC(CC(=O)O)c2ccccc2Cl)c1 (stereo not given)
→ 12 | 6
> O=c1[nH]c(CN(Cc2ccco2)Cc2cccs2)nc2ccsc12
→ -1 | 33
> CC(C)N1C(=O)CC(Sc2ncccc2C(=O)O)C1=O (stereo not given)
→ -5 | -15
> COCCNC(=O)Cn1nc2c(c1NC(=O)Cc1cccs1)CSC2
→ -4 | 4
> COc1ccccc1CC1CCN(C2CC(C)OC2=O)CC1 (stereo not given)
→ 3 | 1
> O=C(NCCc1cccc(F)c1)C1CCCCC1C(=O)N1CCc2c([nH]c3ccccc23)C1 (stereo not given)
→ 11 | 1
> Cc1nc(NC(=O)c2cccc(Br)c2)oc1C
→ 10 | 7
> Cc1ccc(-c2[nH]ncc2CN(CCO)Cc2ccccc2)cc1C
→ 7 | 5
> O=S(=O)(c1ccc(Cl)cc1)N1CCC(c2cn(Cc3cccc(F)c3)c3ccccc23)CC1
→ 18 | 10

Given with bars between the fields: part of the list above.
Structure | NPYLR7 ag | NPYLR7 ag max-min
Cc1ccc(Cn2c(CO)cnc2SCC(=O)N2CCCCCC2)cc1 | 2 | 1
CCc1c(C)nn(-c2ccc(C(=O)N[C@@H]3C[C@@H]4C[C@H]([C@H]3C)C4(C)C)cc2)c1C | -13 | -23

The listing continues:
Results follow in this order: NPYLR7 ag | NPYLR7 ag max-min
> COCc1[nH]n2c(=O)c(C)c(C)nc2c1-c1ccc(OC)cc1
→ -13 | -18
> COc1ccc(C(=O)N2CCN(C(C(=O)N3CCSCC3)C3CCCC3)CC2)cc1 (stereo not given)
→ 0 | 19
> O=C(NCC1(c2ccccc2)CC1)C1CCN(S(=O)(=O)c2cccs2)CC1
→ 8 | 12
> CCOC(=O)CCC(=O)Nc1cccc(-c2cccc(-c3ccc(F)cc3)n2)c1
→ -5 | -7
> CC(C)c1cccc(-c2nc3c(NC4CCC(O)CC4)nccc3[nH]2)c1 (stereo not given)
→ -1 | -6
> COCCNC(=O)Cn1nc(-c2ccco2)c2sc(N3CCCCC3)nc2c1=O
→ 0 | -5
> O=C(c1cnc2cc3c(cc2c1)OCCO3)c1cc(F)ccc1O
→ 4 | 1
> N#Cc1cccc(NC(=O)N2CCC3(CC2)NCCc2c3[nH]c3ccc(OCc4ccccc4)cc23)c1
→ 0 | 10
> Cc1cc(C)n(CCN(C)Cc2cnn3cccnc23)n1
→ -1 | -6
> CCOC(=O)c1nn(-c2ccccc2C)c(=O)cc1OS(=O)(=O)c1ccc(C(C)=O)cc1
→ -1 | 0
> CC(=O)Cn1cnc2c(nnn2-c2ccc(C)c(Cl)c2)c1=O
→ -3 | -9
> COc1ccccc1C(=O)Nc1ccc2c(c1)CN(Cc1ccncc1)CC2
→ -4 | -9
> Cc1cccc(-c2nnc(NC(=O)C(NC(=O)Nc3ccc(C(C)C)cc3)C(C)C)s2)c1 (stereo not given)
→ 18 | 18
> Cc1cccc2oc(-c3ccc(N)cc3)nc12
→ -4 | -7
> O=C1/C(=C/c2ccccc2)SC(=Nc2ccc(O)cc2)N1c1ccc(O)cc1
→ -5 | -7
> CNc1nc2cnc(Nc3ccc(OC(F)(F)F)cc3)cc2n1CCOC
→ 8 | -5
> COc1cc(C=NNC(=O)c2ccccc2O)cc(Br)c1O
→ 0 | -4
> Nc1ccccc1C(=O)CC(N)C(=O)O (stereo not given)
→ -2 | -8
